rRNA inh HTS = inhibits bacterial ribosomal RNA function over humanized ribosomes | E. coli WT GFP vs humanized-ribosome RFP mutants, fluorescence, 24 h; hits give low values; DMSO median 0, no signal -100 | GFP signal change (wild-type ribosome), % (test concentration not listed) | actives 1.6% (n = 350,000);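 active means significant combined selectivity score with lowered wild-type GFP, culture density cut under 30%, mutant RFP and density less affected; inactive means any of these conditions unmet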; further: one replicate is shown; some compounds called inactive have numbers as strong as hits
FGF22 binding = FGF22 (human) thermal shift binding. Q9HCT0. recombinant FGF22 thermal shift, SYPRO orange fluorescence; percent of sucrose octasulfate shift, DMSO zero. calls only at 9.99 µM. actives 1.5% (n = 340,000). AID 651658;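 active means melting point raised past a set limit in the mean and every replicate; three in four hits are not shown here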
Target sequence (Q9HCT0 whole entry, looked up): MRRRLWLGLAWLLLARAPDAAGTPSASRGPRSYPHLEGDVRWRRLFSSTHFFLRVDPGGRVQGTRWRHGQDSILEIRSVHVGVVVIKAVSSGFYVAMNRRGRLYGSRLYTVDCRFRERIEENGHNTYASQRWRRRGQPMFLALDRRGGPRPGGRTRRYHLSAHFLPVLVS
rRNA inh HTS OD600 = recorded beside rRNA inh HTS, whose call it bears; OD600 change, %; measured here: OD600 growth;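 optical density of the mix in the first replicate; 0 = DMSO median and -100 = no signal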
rRNA inh HTS RFP = recorded beside rRNA inh HTS, whose call it bears; RFP signal change, %; measured here: RFP humanized mutant strains;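 first replicate; 0 = DMSO median and -100 = no signal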
* = called active by the depositor; i = inactive; + = active, no number. A portion of the library (hit frequency here may not be typical).

SMILES | rRNA inh HTS | rRNA inh HTS OD600 | rRNA inh HTS RFP | FGF22 binding
OC[C@H]1[C@H](c2ccc(C#Cc3ccccc3F)cc2)[C@@H]2CN(Cc3cncnc3)CCCCN12 | -16 | -9 | 1.0 | i
COc1ccc(S(=O)(=O)N(C)C[C@@H]2OCCCC[C@@H](C)Oc3ccc(NC(=O)Nc4c(C)noc4C)cc3C(=O)N([C@H](C)CO)C[C@H]2C)cc1 | 1 | 0 | -4.0 | i
C[C@@H]1CN([C@@H](C)CO)C(=O)c2cc(NS(=O)(=O)c3ccc(Cl)cc3)ccc2O[C@@H](C)CCCCO[C@H]1CN(C)Cc1ccc(C(F)(F)F)cc1 | -2 | 0 | 5.4 | i
O=C(C[C@H]1CC[C@@H](NC(=O)c2ccc(F)cc2)[C@@H](CO)O1)NCc1ccncn1 | 0 | 0 | -1.5 | i
CO[C@@H]1CN(C)C(=O)c2ccc(NS(C)(=O)=O)cc2OC[C@@H](C)N(C(=O)C2CCOCC2)C[C@H]1C | 2 | -1 | -0.6 | i
C[C@@H](NC(=O)C[C@@H]1CC[C@H](NC(=O)C2CCOCC2)[C@H](CO)O1)c1ccccc1 | 3 | 4 | -1.7 | i
N#C[C@@H]1[C@H](c2ccc(C#CC3CCCCC3)cc2)[C@@H](CO)N1S(=O)(=O)c1ccccc1 | 1 | 0 | -0.2 | i
CCNC(=O)[C@H]1[C@H](CO)[C@H]2Cn3c(ccc(C4=CCCCC4)c3=O)[C@@H]1N2Cc1cocn1 | 0 | -2 | 0.8 | i
C[C@@H]1CN([C@H](C)CO)C(=O)c2cccc(NS(=O)(=O)c3cn(C)cn3)c2O[C@@H]1CN(C)Cc1ccc(C(=O)O)cc1 | 0 | 5 | -2.4 | i
COc1cccc(-c2ccc3c(c2)O[C@H](CN(C)Cc2cccnc2)[C@H](C)CN([C@@H](C)CO)S3(=O)=O)c1 | -31 | -47 | -5.3 | i
COc1ccc(CN2CC3(CN(C(C)=O)C3)c3c(n(C)c4cc(OC)ccc34)[C@H]2CO)cc1 | 1 | 1 | -3.2 | i
CO[C@H](C(=O)N(C)C[C@@H]1OCc2ccccc2-c2ccccc2C(=O)N([C@H](C)CO)C[C@H]1C)c1ccccc1 | 0 | 2 | -1.8 | i
O=C(C[C@H]1CC[C@@H]2[C@H](COC[C@@H](O)CN2S(=O)(=O)c2ccc(F)cc2)O1)NCc1ccc(Cl)c(Cl)c1 | 5 | -10 | -3.6 | i
CN1C(=O)c2cc(NC(=O)c3ccc(Cl)cc3)ccc2OC[C@@H]2O[C@@H](CC(=O)O)CC[C@H]21 | 2 | 2 | -0.8 | i
COc1cccc(S(=O)(=O)N(C)C[C@@H]2OCc3ccccc3-c3ccccc3C(=O)N([C@H](C)CO)C[C@H]2C)c1 | -3 | -10 | -0.5 | i
C[C@@H]1CN([C@@H](C)CO)C(=O)c2cc(NC(=O)Nc3cccc4ccccc34)ccc2O[C@@H](C)CCCCO[C@H]1CN(C)CC1CC1 | 4 | 6 | 2.1 | i
C[C@H](CO)N1C[C@H](C)[C@H](CN(C)C(=O)Nc2ccc3c(c2)OCO3)Oc2c(NS(C)(=O)=O)cccc2C1=O | -1 | -1 | 1.0 | i
C[C@@H]1CN([C@H](C)CO)C(=O)Cc2cc(NC(=O)Cn3cnnn3)ccc2O[C@H]1CN(C)S(C)(=O)=O | 0 | 1 | -0.2 | i
CCCNC(=O)Nc1ccc2c(c1)OC[C@H](C)N(CCC(F)(F)F)C[C@H](C)[C@@H](OC)CN(C)C2=O | -6 | -9 | 1.0 | i
C[C@@H]1CCCCO[C@@H](CN(C)C(=O)NC2CCCCC2)[C@H](C)CN([C@H](C)CO)C(=O)c2cc(NC(=O)CCC(F)(F)F)ccc2O1 | -2 | -12 | 3.3 | i
CC(=O)N(C)C[C@@H]1Oc2ncc(-c3ccc(F)cc3)cc2C(=O)N([C@H](C)CO)C[C@H]1C | -3 | 6 | -3.0 | i
CCCNC(=O)Nc1ccc2c(c1)C(=O)N(C)C[C@H](OC)[C@@H](C)CN(C(=O)C1CCOCC1)[C@@H](C)CO2 | 3 | 3 | -1.7 | i
COc1ccc(NC(=O)Nc2cccc3c2O[C@H](CN(C)S(=O)(=O)c2ccc(F)cc2)[C@@H](C)CN([C@@H](C)CO)C3=O)cc1 | -2 | 3 | -0.9 | i
COCC(=O)N(C)C[C@H]1Oc2ncc(C#C[C@@H](C)O)cc2C(=O)N([C@@H](C)CO)C[C@H]1C | 0 | -1 | 0.9 | i

Laid out differently: 2 of the compounds above
> CCCNC(=O)Nc1ccc2c(c1)C(=O)N(C)C[C@H](OC)[C@@H](C)CN(C(=O)C1CCOCC1)[C@@H](C)CO2
  rRNA inh HTS: 3
  rRNA inh HTS OD600: 3
  rRNA inh HTS RFP: -1.7
  FGF22 binding: i
> COc1ccc(NC(=O)Nc2cccc3c2O[C@H](CN(C)S(=O)(=O)c2ccc(F)cc2)[C@@H](C)CN([C@@H](C)CO)C3=O)cc1
  rRNA inh HTS: -2
  rRNA inh HTS OD600: 3
  rRNA inh HTS RFP: -0.9
  FGF22 binding: i

Remaining list, next part.
SMILES | rRNA inh HTS | rRNA inh HTS OD600 | rRNA inh HTS RFP | FGF22 binding
CO[C@@H]1CN(C)C(=O)c2cc(NC(=O)CC(F)(F)F)ccc2OC[C@@H](C)N(S(=O)(=O)c2cn(C)cn2)C[C@H]1C | 3 | -1 | 1.0 | i
C[C@@H]1CN([C@H](C)CO)C(=O)c2cc(/C=C/c3ccccc3)cnc2O[C@@H]1CN(C)C(=O)c1ccc2c(c1)OCO2 | 0 | 8 | -0.3 | i
C[C@H]1CN([C@@H](C)CO)C(=O)c2cc(C#CC3(O)CCCC3)cnc2O[C@H]1CN(C)Cc1ccccn1 | 4 | 3 | -0.6 | i
C[C@H]1CN([C@@H](C)CO)C(=O)c2cc(NC(=O)C3CCCCC3)ccc2O[C@@H]1CN(C)CC1CC1 | 4 | 11 | -3.3 | i
C[C@@H]1CN([C@H](C)CO)C(=O)Cc2cc(NC(=O)NC3CCCCC3)ccc2O[C@H]1CN(C)C(=O)Nc1ccc(F)cc1 | 2 | 5 | -0.1 | i
CO[C@@H]1CN(C)C(=O)c2cc(NS(=O)(=O)c3ccccc3)ccc2OC[C@H](C)N(Cc2ccccn2)C[C@H]1C | -4 | -5 | 0.1 | i
C[C@@H]1CN([C@@H](C)CO)C(=O)c2cc(NC(=O)Cc3ccccc3)ccc2O[C@@H](C)CCCCO[C@@H]1CN(C)Cc1ccccc1 | 1 | -10 | 5.1 | i
C[C@@H]1CN([C@H](C)CO)C(=O)c2cc(/C=C/c3ccccc3)cnc2O[C@H]1CN(C)S(=O)(=O)c1cn(C)cn1 | -4 | -5 | -1.5 | i
O=C(NCc1ccncc1)[C@@H]1N[C@@H]2c3ccc(/C=C/c4ccccc4)c(=O)n3C[C@@H]2[C@H]1CO | 1 | 2 | -3.7 | i
C[C@@H]1CN([C@H](C)CO)C(=O)c2cc(NC(=O)Nc3ccccc3)ccc2O[C@H]1CN(C)C(=O)Nc1ccc(C(F)(F)F)cc1 | -8 | -17 | 1.6 | i
C[C@@H]1CCCCO[C@@H](CN(C)C(=O)C2CCCCC2)[C@H](C)CN([C@H](C)CO)C(=O)c2cc(NC(=O)c3ccncc3)ccc2O1 | -5 | -3 | 2.4 | i
C[C@H](CO)N1C[C@H](C)[C@@H](CN(C)C(=O)C2CCCCC2)OCCCC[C@H](C)Oc2ccc(NC(=O)CCCN(C)C)cc2C1=O | 2 | 2 | -1.8 | i
COc1ccccc1C#Cc1ccc2c(c1)O[C@@H](CN(C)Cc1ccncc1)[C@H](C)CN([C@H](C)CO)S2(=O)=O | -2 | 3 | 6.5 | i
CC(C)C[C@H]1COc2cc(N3CCOCC3)ccc2S(=O)(=O)N1 | 3 | 3 | -4.4 | i
C[C@H](CO)N1C[C@H](C)[C@H](CN(C)C(=O)C2CCC2)Oc2cc(C3=CCCC3)ccc2S1(=O)=O | -6 | -23 | 1.2 | i
CN(C)CC(=O)N[C@H]1CC[C@@H](CCNC(=O)C2CCCCC2)O[C@@H]1CO | -1 | 3 | -0.7 | i
C[C@H]1CN([C@@H](C)CO)C(=O)c2ccccc2-c2ccccc2CO[C@H]1CN(C)Cc1cccc(O)c1 | -1 | -10 | 0.0 | i
C[C@H]1CN([C@@H](C)CO)C(=O)Cc2cc(NS(=O)(=O)c3cn(C)cn3)ccc2O[C@H]1CN(C)C(=O)Nc1ccc(C(F)(F)F)cc1 | 4 | 6 | -0.7 | i
CCNC(=O)C[C@H]1CC[C@@H](NC(=O)C2CC2)[C@@H](CO)O1 | 4 | 1 | -1.6 | i
O=C(C[C@@H]1C=C[C@@H](NC(=O)c2ccncc2)[C@H](CO)O1)NCC1CC1 | -1 | 0 | -1.5 | i
COc1ccccc1-c1ccc2c(c1)O[C@@H](CN(C)C(=O)c1ccccc1)[C@@H](C)CN([C@H](C)CO)S2(=O)=O | -6 | -4 | 5.0 | i
COC(=O)C[C@H]1C[C@@H]2c3cc(NC(=O)Nc4ccc(F)cc4)ccc3O[C@@H]2[C@H](CO)O1 | -3 | -3 | 1.1 | i
Cc1noc(C)c1NC(=O)N(C)C[C@@H]1OCCCC[C@H](C)Oc2ccc(NC(=O)NC3CCCCC3)cc2C(=O)N([C@@H](C)CO)C[C@H]1C | 3 | 2 | 0.8 | +
CO[C@@H]1CN(C)C(=O)c2ccc(NC(=O)Cc3ccccc3)cc2OC[C@H](C)N(C(C)=O)C[C@@H]1C | 0 | 0 | -0.8 | i
COCC(=O)Nc1ccc2c(c1)[C@H]1C[C@@H](CC(=O)NCc3cccnc3)O[C@@H](CO)[C@H]1O2 | 1 | 0 | -0.6 | i
C[C@H]1CN([C@@H](C)CO)C(=O)c2cccc(NC(=O)C3CC3)c2O[C@H]1CN(C)Cc1ccccc1 | 9 | -1 | -2.9 | i
C[C@@H]1CN([C@@H](C)CO)S(=O)(=O)c2ccc(-c3ccc(F)cc3)cc2O[C@H]1CN(C)C(=O)c1ccccc1F | -8 | -21 | -3.3 | i
C[C@H](CO)N1C[C@H](C)[C@H](CN(C)C(=O)Nc2ccccc2)Oc2ccc(NS(=O)(=O)c3ccccc3)cc2CC1=O | 2 | 5 | 1.1 | i
C[C@H](CO)N1C[C@H](C)[C@H](CN(C)Cc2cccc(F)c2)Oc2cc(C#Cc3ccccn3)ccc2S1(=O)=O | -3 | -4 | 17 | i
CO[C@@H]1CN(C)C(=O)c2ccc(NC(C)=O)cc2OC[C@@H](C)N(Cc2ccc(F)cc2)C[C@H]1C | -4 | -14 | 2.2 | i
N#C[C@H]1[C@H](c2ccc(-c3cccc(F)c3)cc2)[C@@H](CO)N1C(=O)CN1CCOCC1 | -1 | 4 | 3.0 | i
C[C@@H]1CN([C@H](C)CO)C(=O)c2cc(NC(=O)CCCCCC(=O)Nc3ccccc3N)ccc2O[C@@H]1CN(C)C(=O)NC1CCCCC1 | 1 | 8 | 0.3 | i
CN(C)CCCNC(=O)C[C@@H]1CC[C@@H]2[C@@H](COc3ccc(NC(=O)c4ccc5c(c4)OCO5)cc3C(=O)N2C)O1 | 6 | 6 | -2.3 | i
C[C@H](CO)N1C[C@H](C)[C@@H](CN(C)C(=O)Cc2ccccc2)OCCCC[C@H](C)Oc2ccc(NC(=O)Nc3cccc4ccccc34)cc2C1=O | 2 | 1 | 1.4 | i
C/C=C/c1cnc2c(c1)C(=O)N([C@H](C)CO)C[C@@H](C)[C@H](CN(C)S(=O)(=O)c1ccccc1)O2 | -4 | -6 | 0.1 | i
CCS(=O)(=O)N1[C@H](C#N)[C@@H](c2ccc(C#CC(C)C)cc2)[C@@H]1CO | 2 | -13 | 2.2 | i
O=C(N[C@H]1CC[C@@H](CCNS(=O)(=O)c2ccc(Cl)cc2)O[C@H]1CO)c1ccccn1 | -4 | -4 | 0.9 | i
C[C@H](CO)N1C[C@H](C)[C@H](CN(C)S(=O)(=O)c2ccccc2)Oc2ccc(NC(=O)CCC(F)(F)F)cc2CC1=O | 0 | -4 | -2.0 | i
C[C@@H]1CN([C@H](C)CO)C(=O)c2cc(NC(=O)CCC(F)(F)F)ccc2O[C@@H]1CN(C)Cc1ccc(C(=O)O)cc1 | 7 | 9 | 0.0 | i

In the list so far, 7 contain an aryl methoxy group.
SMILES | rRNA inh HTS | rRNA inh HTS OD600 | rRNA inh HTS RFP | FGF22 binding
COc1ccc(S(=O)(=O)N(C)C[C@@H]2OCCCC[C@@H](C)Oc3ccc(NC(=O)Nc4c(C)noc4C)cc3C(=O)N([C@H](C)CO)C[C@H]2C)cc1 | 1 | 0 | -4.0 | i
COc1cccc(-c2ccc3c(c2)O[C@H](CN(C)Cc2cccnc2)[C@H](C)CN([C@@H](C)CO)S3(=O)=O)c1 | -31 | -47 | -5.3 | i
COc1ccc(CN2CC3(CN(C(C)=O)C3)c3c(n(C)c4cc(OC)ccc34)[C@H]2CO)cc1 | 1 | 1 | -3.2 | i
COc1cccc(S(=O)(=O)N(C)C[C@@H]2OCc3ccccc3-c3ccccc3C(=O)N([C@H](C)CO)C[C@H]2C)c1 | -3 | -10 | -0.5 | i
COc1ccc(NC(=O)Nc2cccc3c2O[C@H](CN(C)S(=O)(=O)c2ccc(F)cc2)[C@@H](C)CN([C@@H](C)CO)C3=O)cc1 | -2 | 3 | -0.9 | i
COc1ccccc1C#Cc1ccc2c(c1)O[C@@H](CN(C)Cc1ccncc1)[C@H](C)CN([C@H](C)CO)S2(=O)=O | -2 | 3 | 6.5 | i
COc1ccccc1-c1ccc2c(c1)O[C@@H](CN(C)C(=O)c1ccccc1)[C@@H](C)CN([C@H](C)CO)S2(=O)=O | -6 | -4 | 5.0 | i

High-throughput results (PubChem)
